Screening data deposited in PubChem BioAssay by National Center for Advancing Translational Sciences (NCATS).
TSHR ag: TSH receptor (human) agonism. P16473. 0.48% of 73,000 active. HEK293-CNG-TSHR cells (CNG channel as cAMP sensor), membrane potential dye, cAMP. Potency, µM (highest dose often 57.1 µM), without a hit: top-dose activation, hits mostly activators; active = well fitted activation curve of enough size with the parental cells flat; inconclusive = any curve in the parental cells; inactive = parental cells flat and receptor cells flat or falling; note: potency is the fitted concentration of half-maximal effect; % of control where 0% means no effect; weak receptor curves with flat parental cells got no call and are not listed
Target sequence (P16473 whole entry, looked up): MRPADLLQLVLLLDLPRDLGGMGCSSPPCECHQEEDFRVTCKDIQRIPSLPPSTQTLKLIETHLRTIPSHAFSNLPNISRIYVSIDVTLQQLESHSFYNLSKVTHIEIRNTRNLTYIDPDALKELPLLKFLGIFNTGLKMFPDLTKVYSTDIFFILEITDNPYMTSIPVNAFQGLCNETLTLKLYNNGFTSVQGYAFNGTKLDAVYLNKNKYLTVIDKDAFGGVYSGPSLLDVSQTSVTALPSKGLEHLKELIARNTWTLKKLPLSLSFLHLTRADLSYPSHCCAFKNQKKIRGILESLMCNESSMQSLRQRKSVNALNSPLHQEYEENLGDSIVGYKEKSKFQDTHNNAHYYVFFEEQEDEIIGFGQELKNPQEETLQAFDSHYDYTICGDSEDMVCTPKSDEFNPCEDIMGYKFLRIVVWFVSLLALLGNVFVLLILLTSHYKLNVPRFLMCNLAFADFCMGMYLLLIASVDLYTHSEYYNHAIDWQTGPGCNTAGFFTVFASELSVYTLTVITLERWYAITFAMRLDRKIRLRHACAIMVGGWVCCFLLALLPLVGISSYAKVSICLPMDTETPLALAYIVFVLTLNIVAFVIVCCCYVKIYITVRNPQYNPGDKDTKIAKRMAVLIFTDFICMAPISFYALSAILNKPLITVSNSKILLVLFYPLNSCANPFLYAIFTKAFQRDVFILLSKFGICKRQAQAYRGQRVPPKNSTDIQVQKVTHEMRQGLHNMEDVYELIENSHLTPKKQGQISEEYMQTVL
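cAMP rise detected as CNG-channel membrane depolarization by fluorescent dye (emission 590 nm), 30 min after compound, following 60 min dye loading containing 100 uM RO 20-1724 at room temperature. Cells: TSHR/CNG HEK 293, with parental CNG HEK 293 as control.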
AID923: qHTS Assay for Allosteric/Competitive Inhibitors of Caspase-1: Spectroscopic Profiling in AFC Spectral Region; AID 923, 2007; Potency, µM (series often up to 57.5 µM), for inactives: at the top dose fluorescence increase, hits mostly activators; compound fluorescence, AFC spectral region (405/520 nm); almost no hit is shown here; 1.1% of 75,000 active; active = well fitted activation curve with a large enough effect; inconclusive = small, poorly fitted or top-dose-only effect;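 note: potency is the fitted concentration of half-maximal effect; 0% is about no effect; scaled to a free AFC standard on each plate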
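Baseline compound fluorescence (AFC region, 405 nm ex/520 nm em) taken from the intercept of kinetic reads with 50 nM caspase-1 and 5 uM Ac-WEHD-AFC; normalized to an on-plate AFC standard curve; compounds titrated up to 57 uM.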
A647 fluor: compound fluoresces in the A647 spectral region; Compound fluorescence, A647 channel (570/671 nm), Tris buffer; 59,000 tested, under 10 active; max dye-equivalent concentration, M; AID 592; active means above 1 µM dye equivalent; inconclusive means 0.1 to 1 µM; inactive means 0.1 µM or less;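 note: values scaled relative to a standard on each plate; highest value over a series up to 38 µM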
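Fluorescence read (570 nm ex, 671 nm em) after 15 min RT incubation of compounds in 100 mM Tris buffer, pH 8.0; values expressed as dye-equivalent concentration against a six-point A647 standard series on each plate.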
A488 autofl: A488 region autofluorescence. 0.1% of 59,000 active. max dye equivalency, M. compound autofluorescence, A488 spectral region, dye equivalency; hits give high values. AID 591; active = above 10 nM dye equivalent; inconclusive = 1 to 10 nM; inactive = 1 nM or less; about half of its hits are not listed in these tables;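 note: highest value over a series up to 38 µM; compound alone in buffer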
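Compound autofluorescence was read in 100 mM Tris pH 8.0 after 15 min at room temperature, ex 480 nm/em 540 nm. Intensities were converted to A488 dye-equivalent concentration using an on-plate six-point A488 standard curve.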
Resorufin fluor: resorufin region autofluorescence. Compound fluorescence, resorufin region 547/598 nm, buffer; hits give high values. max dye-equivalent concentration, M. 0.04% of 59,000 active. AID 588; active = above 10 nM dye equivalent; inconclusive = 1 to 10 nM; inactive = 1 nM or less; a few of its hits are not listed in these tables; note: highest value over a series up to 38 µM
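Compounds in 100 mM Tris buffer, pH 8.0, incubated 15 min at room temperature, then read with 547 nm excitation and 598 nm emission filters. Fluorescence was converted to dye-equivalent concentration using an on-plate six-point resorufin standard curve.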
Starred values were filed as active, the others as inactive; i = inactive; ? = inconclusive; / = no result given; [ ] = dose if it differs, or a comment. Only part of the results is shown; the hit share may differ from the screen's.

SMILES	TSHR ag	AID923	A647 fluor	A488 autofl	Resorufin fluor
O=C1C2CCCN2C(c2ccc(Cl)cc2)N1c1nccs1 (stereo not drawn)	2%	0.6%	1e-09	i	i
CCOC(=O)c1c(NC(=O)CN2CCCCC2)sc2c1CCN(C(=O)OCC)C2	?	-2.8%	/	/	/
O=C1CSC(c2nn(-c3ccccc3)cc2-c2cc3ccccc3oc2=O)N1Cc1ccco1 (stereo not drawn)	/	-1.8%	1.9e-08	i	i
CN(CCCC(=O)NCc1ccco1)S(=O)(=O)c1ccccc1	4%	1.0%	1.8e-09	i	i
CCN(CC)C(=O)CSc1nnc(-c2ccccc2)n1N	1%	-0.2%	2.8e-09	i	i
COC(=O)C1C(=O)NCC1c1ccccc1 (stereo not drawn)	/	/	?	i	i
CCOC(=O)Nc1ccc(S(=O)(=O)Nn2cnnc2)cc1	3%	0.2%	/	/	/
C/C(N)=C(/C#N)C(=O)CSc1ccc2c(c1)OCCO2	0%[11.4 µM]	0.2%	2.6e-08	i	i
O=C(NCc1ccc2c(c1)OCO2)C1CCCN(S(=O)(=O)c2cccnc2)C1 (stereo not drawn)	2%	1.0%	/	/	/
CCn1c(=N)n(CCO)c2ccccc21	-7%	1.4%	1.6e-08	i	i
CCCC/C=C/C(NC(=O)Oc1cccc(C(F)(F)F)c1)c1ccccc1 (stereo not drawn)	?	-2.1%	/	/	/
CCCC(=O)N(c1ccc2oc(=O)sc2c1)S(=O)(=O)c1ccccc1	-6%	-2.9%	3.9e-08	i	i
O=C(CCCNS(=O)(=O)c1cccc2nsnc12)NC1CCCCC1	-1%	1.1%	8.1e-09	i	i
c1ccc(C(c2ccccc2)N2CC[C@@]3(CCCNC3)C2)cc1	3%	6.1%	1.6e-08	i	i
COCc1cc(C)nc(Nc2ccccc2C)c1C#N	22%	0.9%	4.9e-08	i	i
CSc1ccc(C=O)cc1	-9%	0.7%	/	/	/
CCc1cc(C(=O)OC)c(NC(=O)c2cc(Br)cs2)s1	9%	20%	1e-09	i	i
CCOC(=O)C1(O)CSc2nc3sc(C(=O)O)c(C)c3c(=O)n21 (stereo not drawn)	8%	0.9%	2e-08	i	i
COc1c(C(=O)N2CCCC2)ccc2ccccc12	7%	0.4%	3.5e-09	i	i
CN(c1ccccc1)S(=O)(=O)c1ccc(C(=O)OCC(=O)N2CCOCC2)cc1	-2%	0.0%	1e-09	i	i
O=C1N(Cc2ccc3c(c2)OCO3)c2ccccc2C1(O)c1c[nH]c2ccccc12 (stereo not drawn)	?	-1.0%	1e-09	i	i
CCCS(=O)(=O)N1CCCC(C(=O)NC(C)c2ccc3c(c2)OCCO3)C1 (stereo not drawn)	25%	1.0%	1e-09	i	i
CC(O)c1ccc2c(c1)OCCOCCN(C)CCOCCO2 (stereo not drawn)	-4%	0.6%	6.9e-09	i	i
COc1ccc2nc3sc(C(=O)N4CCN(C)CC4)cc3cc2c1	15%	3.9%	2.1e-08	i	i
O=C(NCCCn1ccnc1)c1noc2c1CCCC2	1%	0.8%	1e-09	i	i

Single records, as listed above. Values in the order: TSHR ag | AID923 | A647 fluor | A488 autofl | Resorufin fluor
CSc1ccc(C=O)cc1 in the list: -9% | 0.7% | / | / | /
CCOC(=O)c1c(NC(=O)CN2CCCCC2)sc2c1CCN(C(=O)OCC)C2 in the list: ? | -2.8% | / | / | /
CCCC(=O)N(c1ccc2oc(=O)sc2c1)S(=O)(=O)c1ccccc1 in the list: -6% | -2.9% | 3.9e-08 | i | i
CCn1c(=N)n(CCO)c2ccccc21 in the list: -7% | 1.4% | 1.6e-08 | i | i
C/C(N)=C(/C#N)C(=O)CSc1ccc2c(c1)OCCO2 in the list: 0%[11.4 µM] | 0.2% | 2.6e-08 | i | i

(listing goes on)
SMILES	TSHR ag	AID923	A647 fluor	A488 autofl	Resorufin fluor
O=C(COC(=O)Cc1cn2ccsc2n1)NCc1ccc2c(c1)OCO2	2%	0.3%	1e-09	i	i
CN1CCN(c2ccccc2NC(=O)Cc2cn(C)c3ccccc23)CC1	?	0.2%	/	/	/
Cc1cc2c(=O)n(C)c(SCC(=O)c3cc4ccccc4o3)nc2s1	?	-1.1%	1e-09	i	i
Cc1ccc(CNC(=O)Nc2cccs2)cc1	6%	2.0%	/	/	/
CCC(C)(C)n1nnnc1C(c1ccc(O)c(OC)c1)N1CCN(c2nc3ccccc3s2)CC1 (stereo not drawn)	?	0.0%	2.5e-08	i	i
Cn1cccc1C(=O)NC(=O)CSc1nc2ccccc2s1	?	-0.4%	3.4e-08	i	i
CO[C@H]1COC(=O)C/C=C\[C@H](C)[C@@H](OC)COC(=O)[C@@H](C)NC(=O)C/C=C\[C@@H]1C	-7%[11.4 µM]	0.5%[11.5 µM]	/	/	/
O=C(NCCCN1CCOCC1)C(C(=O)c1ccccc1)n1ccccc1=O (stereo not drawn)	?	1.4%	1e-09	i	i
Cc1ccc(OCc2nc(-c3ccccn3)no2)c(Br)c1	6%	-1.3%	/	/	/
COc1ccccc1N(CC(=O)NCCc1ccccc1)S(C)(=O)=O	27%	3.4%	/	/	/
O=C(NCCCN1CCOCC1)C1CC(=O)N(CCc2ccccc2)C1 (stereo not drawn)	-5%	-0.5%	5.6e-09	i	i
Cc1ccc(NC(=O)C2CCCN(S(=O)(=O)c3cnc[nH]3)C2)cc1F (stereo not drawn)	2%	1.8%	/	/	/
Cc1c(-c2nc(N)nc(Nc3ccc(F)cc3)n2)oc2ccccc12	7%	0.9%	9.3e-09	i	i
COCc1nnc(NC(=O)CCc2ccccc2)s1	/	-1.3%	4.8e-08	i	i
CCOC(=O)CSc1nc(-c2ccc(OC)cc2)ns1	3%	1.2%	2.2e-08	i	i
Nc1ccccc1SCc1cn2cccnc2n1	0%	1.9%	/	/	/
COc1cccc(C2CC(c3ccccc3)Nc3nc(N)nn32)c1 (stereo not drawn)	-4%	-1.7%	/	/	/
O=C(Nc1ccccc1N1CCCCC1)c1cccs1	?	0.8%	7.2e-09	i	i
O=C(O)[C@H](Cc1ccccc1)N1C(=O)c2ccccc2C1=O	-2%[11.4 µM]	0.0%[11.5 µM]	1e-09	i	i
CN(C)Cc1nc2ccccc2c(=O)n1Cc1nc(C(C)(C)C)cs1	?	-1.5%	3.3e-08	i	i
COc1ccccc1-n1nc(C(=O)Nc2ccc3c(c2)OCO3)c2ccccc2c1=O	11%	0.6%	4.2e-09	i	i
CCS(=O)(=O)N1Cc2ccccc2CC1C(=O)Nc1nc2ccccc2[nH]1 (stereo not drawn)	-3%	-0.3%	2.3e-08	i	i
Cn1c(C(=O)OC(C(=O)NC2CCCC2)c2ccncc2)cc2sccc21 (stereo not drawn)	?	-0.6%	1e-09	i	i
CCC1(C)C2(C#N)C(N)=NC(OC)(OC)C12C#N (stereo not drawn)	-9%	-1.2%	/	/	/
O=C(Nc1ccc2nn(-c3ccccc3)nc2c1)c1ccc(Br)o1	?	5.1%	6.8e-09	i	i
The list continues.
SMILES	TSHR ag	AID923	A647 fluor	A488 autofl	Resorufin fluor
O=S(=O)(Cc1ccc(Cl)cc1)N1CCN(Cc2ccccc2)CC1	6%	-0.4%	1.4e-08	i	i
O=C(NCc1ccco1)C1CCCN(S(=O)(=O)c2cnc[nH]2)C1 (stereo not drawn)	-1%	-1.8%	/	/	/
Cc1ccccc1Nc1nc(N)nc(COC(=O)CCS(=O)(=O)c2ccccc2)n1	-13%	2.6%	1.5e-09	i	i
CCCCCCC1C(C#N)=C(N)OC2=C1C(=O)CC(C)(C)C2 (stereo not drawn)	10%	-1.7%	/	/	/
COc1ccc(N(C(=O)c2ccccc2OC)C2C=CS(=O)(=O)C2)c(OC)c1 (stereo not drawn)	-4%[11.4 µM]	0.2%	3.5e-09	i	i
Cc1cc(C(=O)N2CCc3ccccc32)c2ccccc2n1	7%	0.2%	2.2e-08	i	i
CCCn1c(=O)[nH]c(=O)c2c1nc(-c1ccc3c(c1)OCCO3)n2CCN1CCOCC1	-2%	0.7%	2e-09	i	i
O=C1c2ccccc2C(=O)C1c1ccncc1	-7%	1.3%	/	/	/
O=C(Nc1ccccc1)c1cccc(-c2nnc(-c3ccccc3)o2)c1	?	-2.0%	1e-09	i	i
COc1ccc(CCNC(=O)c2ccc3c(=O)n(Cc4ccco4)c(=S)[nH]c3c2)cc1OC	5%	0.3%	4.1e-09	i	i
COc1ccc(N2CCN(c3oc(COc4ccc(Cl)cc4)nc3C#N)CC2)cc1	/	/	7.8e-09	i	i
Oc1ccc(Nc2nc(NCC3CCCO3)c3ccccc3n2)cc1 (stereo not drawn)	-4%	-0.9%	2.8e-08	i	i
O=C(CCSc1nnc2ccccn12)Nc1ccc(F)cc1	7%	0.0%	3.7e-08	i	i
COc1cccc(OCCCCSc2ncccn2)c1	?	2.4%	/	/	/
COC(=O)C(C(=O)OC)[C@@H]1CCCC(=O)C1	-9%[11.4 µM]	-2.3%[11.5 µM]	/	/	/
Cn1c(=O)n(C)c2cc(CN3C(=O)OC(C)(C)C3(C)O)ccc21 (stereo not drawn)	?	3.8%	/	/	/
O=C(CCNS(=O)(=O)c1cccc2nsnc12)N1CCN(c2ccccn2)CC1	3%	-1.4%	6.3e-09	i	i
Cc1ccc(C)c(-n2c(CNc3ccc(F)cc3)nnc2SCC(N)=O)c1	-8%	-0.5%	1e-09	i	i
COc1ccc(C2C(C(C)=O)=C(C)N=c3s/c(=C\c4ccco4)c(=O)n32)c(OC)c1 (stereo not drawn)	0%	6.1%	/	/	/
CC(C)(CO)NS(=O)(=O)c1ccc2c(c1)oc(=O)c1cc(S(=O)(=O)NC(C)(C)CO)ccc12	0%	4.7%	1e-09	i	i
CC(C)(O)C#Cc1ccc(C(=O)N2CCC(C(N)=O)(N3CCCCC3)CC2)cc1	26%	0.5%	2.6e-08	i	i
Cn1cccc1Cc1nnc(SCC(=O)NC2CCCCC2)n1CCc1ccccc1	18%	-2.8%	/	/	/
O=C(Cn1nc(Cc2ccncc2)c2ccccc2c1=O)N1CCN(C(=O)c2ccco2)CC1	5%	-2.3%	/	/	/
Fc1ccccc1N1CCN(C(c2ccccn2)c2nnnn2C2CCCCC2)CC1 (stereo not drawn)	16%	-0.8%	5.9e-09	i	i
CN(C(=O)c1ccccc1Cl)C1CCCCC1	/	-3.0%	2.4e-09	i	i
Additional structures follow:
SMILES	TSHR ag	AID923	A647 fluor	A488 autofl	Resorufin fluor
Nc1ccc2oc(CCc3ccccc3)nc2c1	-7%	-0.6%	1e-09	i	i
COc1cccc(-n2c(Cc3cc(=O)[nH]c(=O)[nH]3)nnc2SCC(=O)NC2CCCCC2)c1	4%	-0.2%	/	/	/
CCOC(=O)CSc1nnc(-c2ccco2)n1-c1ccccc1	6%	-0.4%	2.8e-09	i	i
O=C(CSc1nnc(-c2ccc(Br)o2)n1Cc1ccccc1)c1ccccc1F	?	3.0%	1e-09	i	i
O=C(Cn1c(=O)oc2cc(S(=O)(=O)N3CCCC3)ccc21)NCc1ccccn1	9%	2.3%	/	/	/
Cc1ccc2cc(CCNC(=O)CC(C)(C)C)c(=O)[nH]c2c1C	?	2.7%	/	/	/
Cc1nc(C)c(C(=O)Nc2ccccc2-c2ccccc2)o1	?	1.0%	2.4e-08	i	i
COc1ccc(OC)c(-c2nnc(-c3ccc(C)o3)o2)c1	?	0.2%	1e-09	i	i

Four structures from above, ordered by SMILES length, rising.
SMILES	TSHR ag	AID923	A647 fluor	A488 autofl	Resorufin fluor
Nc1ccc2oc(CCc3ccccc3)nc2c1	-7%	-0.6%	1e-09	i	i
Cc1nc(C)c(C(=O)Nc2ccccc2-c2ccccc2)o1	?	1.0%	2.4e-08	i	i
Cc1ccc2cc(CCNC(=O)CC(C)(C)C)c(=O)[nH]c2c1C	?	2.7%	/	/	/
COc1cccc(-n2c(Cc3cc(=O)[nH]c(=O)[nH]3)nnc2SCC(=O)NC2CCCCC2)c1	4%	-0.2%	/	/	/
